PINK1 expr mod: changes PINK1 expression; Potency, µM (doses to about 76.6 µM), inactives show top-dose activation (PINK1 increase), most hits filed as activators; 410,000 tested, 0.2% active; PINK1 immunofluorescence, high-content cytometry, 24 h; active = well fitted activation curve with a large enough effect; inconclusive = small, poorly fitted or top-dose-only effect; inactive = flat fitted curve, though single readings scatter; cell line not stated here;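 further: % of control where 0% means no effect; nearly all actives have a fitted effect of over 65% in size; a mitochondrial uncoupler was the plate control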
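Stable cell line treated 24 h with compounds at 5 concentrations (CCCP controls), then fixed and immunostained for PINK1 plus nuclear and cell stains; PINK1 immunofluorescence quantified by laser-scanning microplate cytometry.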
The depositor's hits bear a star; ? = inconclusive. Potency means the concentration at half of the fitted maximal effect. These rows are one share of the data (hit frequency here may not be typical).

SMILES	PINK1 expr mod
COCC(=O)Nc1cc(C(=O)N2CCCC2c2nccs2)c2c(c1)nc(-c1ccncc1)n2C (stereo not given)	1.3%
COc1ccc2c(c1)-c1nc(-n3ncc(C(=O)NCc4cccc(C)n4)c3C3CC3)ncc1CC2	0.0%
O=C(CCc1nc2ccccc2s1)N1CCOc2ccc(CN3CCc4sccc4C3)cc2C1	0.5%
Cc1cnc(CNc2ncncc2-c2ccccc2CN(C)C)cn1	-1.1%
CN(Cc1ccco1)c1ncncc1-c1cccnc1	1.8%
COc1cc(=O)n2c(c1C(=O)NCc1ccco1)CCN(C(=O)c1ccc(C)c(C)c1)CC2	1.6%
O=c1c(CCc2ccccc2)nc2cnc(N3CCNCC3)nc2n1CCc1ccccc1	9.7%
CC(C)NC(=O)N1CCCC2(CCN(C(=O)c3csnn3)CC2)C1	2.3%
COc1ccc(CN2CCC3(CC2)c2ccccc2[C@@H](NC(=O)c2ccccc2OC)[C@@H]3O)cc1O	0.6%
Cc1cccc(CNc2cc(-c3ccoc3)ncn2)c1	2.7%
COc1ccc(-c2nc3cnc(Nc4cccc(OC)c4)nc3n(C3CC3)c2=O)cc1	8.1%
O=c1cc(-c2cc(O)c(O)c(O)c2)oc2cc(O)cc(O)c12	-2.3%
CN(C)C(=O)c1cccc(-c2csc(N3CCC(C(N)=O)CC3)n2)c1	6.7%
COCCN(C)C(=O)c1cnn(-c2nccc(-c3cc(OC)ccc3OC)n2)c1C	0.4%
CC(C)CN1CCC2(CC1)CCN(C(=O)c1cccc(F)c1)CC2	1.2%
O=c1c(-c2ccccc2)nc2cnc(Oc3cccc(Cl)c3)nc2n1C[C@H]1CCCO1	0.1%
COc1ccccc1-c1cncnc1Nc1ccc(F)cc1	0.1%
Cc1cc(C(=O)NCc2nc(-c3ccccc3NC(=O)C3CCCO3)oc2C)nc(C)n1 (stereo not given)	0.0%
CC(C)Cc1nc2cc(NS(=O)(=O)N(C)C)cc(C(=O)N3CC4(C)CC3CC(C)(C)C4)c2n1C (stereo not given)	0.3%
CC(C)CNC(=O)c1cn(C2CCN(Cc3nc4ccccc4s3)CC2)nn1	-0.6%
COCC(=O)N1CCC2(CC1)CN(Cc1ccccc1OC)C2	-1.0%
O=S(=O)(c1ccccc1)N1CCC2(CCN(Cc3ccncc3)CC2)CC1	-0.8%
CCCS(=O)(=O)NCc1c(C)ncc2c1CCN(C(=O)c1cccc(C(F)(F)F)c1)C2	0.1%
CCNc1ncc2nc(-c3cc(F)cc(F)c3)c(=O)n(C3CC3)c2n1	3.0%
Cc1c(C(=O)NCc2cccc(F)c2)sc2ncnc(NCC3CCCO3)c12 (stereo not given)	0.5%

Six of the entries above in order of the PINK1 expr mod value, high to low:
SMILES	PINK1 expr mod
Cc1cccc(CNc2cc(-c3ccoc3)ncn2)c1	2.7%
COc1cc(=O)n2c(c1C(=O)NCc1ccco1)CCN(C(=O)c1ccc(C)c(C)c1)CC2	1.6%
O=C(CCc1nc2ccccc2s1)N1CCOc2ccc(CN3CCc4sccc4C3)cc2C1	0.5%
COCCN(C)C(=O)c1cnn(-c2nccc(-c3cc(OC)ccc3OC)n2)c1C	0.4%
CC(C)CNC(=O)c1cn(C2CCN(Cc3nc4ccccc4s3)CC2)nn1	-0.6%
COCC(=O)N1CCC2(CC1)CN(Cc1ccccc1OC)C2	-1.0%

Following part:
SMILES	PINK1 expr mod
CC(C)NC(=O)c1cn([C@H]2CC[C@@H](NC(=O)/C=C/c3cccs3)CC2)nn1	0.6%
COC1(C)CCC2OC2(C)CCC2C1CC2(C)C (stereo not given)	0.8%
COc1cc(=O)n2c(c1C(=O)N(C)Cc1nonc1C)CCN(Cc1ccsc1)CC2	0.2%
O=C(c1ccncc1)N1CCC2(CCCN(c3ncccn3)C2)CC1	-0.2%
CN1CCN(c2ncc3nc(-c4cccs4)c(=O)n(C[C@H]4CCCO4)c3n2)CC1	-0.2%
COc1ccc2[nH]cc(CCNc3cc(-c4ccccc4Cl)ncn3)c2c1	0.6%
COc1cccc(Cn2c(=O)c(-c3cc(F)cc(F)c3)nc3cncnc32)c1	4.4%
CCNc1ncc2nc(-c3ccccc3)c(=O)n(Cc3cccs3)c2n1	8.1%
CCC1CN(CCNC(=O)c2cn3cc(C)ccc3n2)Cc2cc(OC)ccc2O1 (stereo not given)	2.6%
COc1ccccc1-c1nc(NCc2cccs2)c2ccccc2n1	2.0%
CN(C)C(=O)c1ccc(-c2nccc(-n3ccnc3)n2)cc1	0.0%
COc1cc(=O)n2c(c1C(=O)NC(C)c1ccco1)CCN(C(=O)c1cccc(C)c1C)CC2 (stereo not given)	-0.2%
COc1c2c(cc3occ(-c4ccc5c(c4)OCO5)c(=O)c13)OC(C)(C)C=C2	1.5%
Cc1noc(C)c1-c1ccc2ncnc(NCc3ccccc3)c2c1	3.6%
C=C(C)C1CC[C@]2(CO)CC[C@@]3(C)[C@H](CCC4[C@@]5(C)CCC(O)C(C)(C)C5CC[C@@]43C)C12 (stereo not given in full)	0.0%
O=c1c(O)c(-c2ccccc2)oc2ccc3occc3c12	0.0%
COc1cc(O)ccc1C(C)=O	0.8%
Cc1cc(-c2ccnc(-n3ncc(C(=O)NCc4cccnc4)c3C3CC3)n2)c(C)s1	1.4%
COc1ccccc1CNc1ccnc(-c2ccccc2CN(C)C)n1	0.9%
Cn1c(=O)c(-c2ccc(F)cc2)nc2cnc(Nc3ccccc3)nc21	5.9%
COc1cc2c(cc1OC)CN(C(=O)[C@@H]1C[C@H](NCc3cn(C)c4ccccc34)CN1C1Cc3ccccc3C1)CC2	6.2%
Cc1nc2cnc(OCc3ccccc3)nc2n(CCc2ccccc2)c1=O	1.8%
O=C(NCC1CCC2(CCN(Cc3cccc4cccnc34)CC2)O1)c1ccco1 (stereo not given)	1.4%
N#Cc1cccc(-c2nc(NCc3cccnc3)c3ccccc3n2)c1	3.8%
FC(F)(F)c1ccccc1-c1cncnc1NCCN1CCOCC1	1.0%
SMILES	PINK1 expr mod
Cc1ccc(C(=O)N(Cc2cc3cccc(C)c3nc2N(C)C)CC2CCCO2)cc1 (stereo not given)	1.1%
COC1OC(CO)C(OC2OC(C(=O)O)C(OC3OC(COS(=O)(=O)O)C(OC4OC(C(=O)O)C(OC5OC(CO)C(OC6OC(C(=O)O)C(OC7OC(COS(=O)(=O)O)C(OC8OC(C(=O)O)=C[C@H](O)C8OS(=O)(=O)O)C(O)C7NC(C)=O)[C@@H](O)C6O)C(O)C5NC(C)=O)[C@@H](O)C4O)C(O)C3NC(C)=O)[C@@H](O)C2O)C(O)C1NC(C)=O (stereo not given in full)	-1.2%
COc1ccccc1-c1ccnc(-n2ncc(C(=O)NCCc3ccncc3)c2C)n1	1.7%
Cc1cnc(CNc2ncncc2-c2cccnc2)cn1	0.5%
CS(=O)(=O)N1CCC2(CC1)CN(Cc1ccc(C#N)cc1)C2	0.6%
COc1ccc(-c2cc(C)cc3c2OC(CNC(=O)c2cc(C(C)C)on2)C3)nn1 (stereo not given)	-0.2%
CCn1nc(Cc2cccc3ccccc23)c(C#N)c1N	1.5%
Cc1noc(C)c1C(=O)N1CCC[C@@]2(CCN(C(=O)NC(C)C)C2)C1	-0.4%
Cc1cnc(-n2ncc(C(=O)NCCCc3ccncc3)c2C)nc1-c1ccc(F)cc1	1.0%
COc1ccc(C2Nc3cccc(O)c3C(=O)N2Cc2ccccc2)cc1COc1ccc(NC(C)=O)cc1 (stereo not given)	4.6%
CC(C)N1C[C@@H](NCc2ccccc2O)C[C@H]1C(=O)N1CCN(c2cccc(C(F)(F)F)c2)CC1	-0.2%
O=C(c1ccncc1)N1CCC[C@@]2(CCN(Cc3cc(C(F)(F)F)cc(C(F)(F)F)c3)C2)C1	0.2%
Cc1cc2c(c(-c3nc4ccccc4s3)c1)OC(CNC(=O)CCc1cccnc1)C2 (stereo not given)	0.5%
COCc1ccc(C(=O)N2CCOc3c(cc(-c4cc(C)c5cccc(OC)c5n4)cc3OC)C2)o1	-0.8%
COC(=O)c1cc(CNC(=O)c2ccc3ccccc3n2)cc(NC(=O)c2cccc(OC)c2)c1	-0.6%
Cc1c(C(=O)N(C)C(C)C)sc2ncnc(NCCCN3CCOCC3)c12	0.3%
CC(C)CN1CCC2(CC1)CCN(C(=O)c1cccn1C)CC2	1.2%
CC(=O)OC1CC2C(C)(C)C(=O)[C@@H]3OC3[C@@]2(C)C2CC[C@]3(C)C(=CC(=O)OC3c3ccoc3)[C@]12C (stereo not given in full)	-0.6%
COc1cccc(Cn2c(=O)c(-c3cn(C)c4ccccc34)nc3cncnc32)c1	?
OCC1O[C@H](O[C@H]2C(O)C(O)C(O)O[C@@H]2CO)C(O)C(O)C1O (stereo not given in full)	-0.9%
Cc1ccc2c(c1)CN(CCNC(=O)c1cc3ccccc3oc1=O)CC(C)O2 (stereo not given)	1.9%
COc1cc(NS(C)(=O)=O)ccc1Cc1c2ccccc2nc2ccccc12	-2.3%
COc1cc(-c2cnc3ccccc3c2)cc2c1OCCN(C(=O)CCC(=O)c1ccc(F)cc1)C2	-0.2%
CN(C)c1ccccc1-c1csc(N2CCC(C(N)=O)CC2)n1	-0.2%
CC(=O)O[C@](C)(CCC=C(C)C)C1CC=C(C)CC1 (stereo not given in full)	-1.4%
SMILES	PINK1 expr mod
CC(C)CCCC(C)C1CCC2C3CC(O)[C@@]4(O)CC(O)CC[C@@]4(C)C3CC[C@@]12C (stereo not given in full)	11%
CCn1nc(C)c(CN2CCC3(CCC(CNC(=O)c4ccccc4)O3)CC2)c1C (stereo not given)	0.4%
O=C(c1cccc(F)c1)N1CCC[C@@]2(CCN(C(c3ccccc3)c3ccccc3)C2)C1	1.8%
Cc1cnc(C)c(-c2cccc3c2OC(CNC(=O)/C=C/c2ccc(F)c(F)c2)C3)n1 (stereo not given)	5.9%
CO[C@H]1[C@H](NC(=O)c2cccs2)c2ccccc2C12CCN(Cc1cccn1-c1cccnc1)CC2	0.3%
Cc1cccnc1-c1cccc2c1OC(CNC(=O)Cn1cncn1)C2 (stereo not given)	-0.1%
COc1ccc(Oc2ncc3nc(-c4ccc(Cl)cc4)c(=O)n(C[C@H]4CCCO4)c3n2)cc1	-0.2%
CN(C)c1ncc2nc(-c3ccc(F)cc3)c(=O)n(C3CC3)c2n1	3.7%
CC(=O)N1CCC2(CC1)CN(Cc1ccc(C#N)cc1)C2	-0.6%
CNc1ncncc1-c1ccccc1C	-0.8%
COc1cccc(Cn2c(=O)c(-c3cn(C)c4ccccc34)nc3cnc(N4CCNCC4)nc32)c1	0.2%
CN(C)C(=O)c1ccc(-c2ccc3ncnc(N(C)Cc4ccco4)c3c2)cc1	-0.6%
Cc1ccccc1-c1cncnc1N(C)Cc1ccco1	-1.9%
CS(=O)(=O)N1CCC2(CC1)CN(c1ccccn1)C2	0.7%
CNc1nc(-c2ccccc2OC)nc2ccccc12	-0.3%
Cc1c(C(=O)NCC(C)(C)CN(C)C)cnn1-c1nccc(-c2ccccc2F)n1	0.8%
CSc1nc(C(=O)NCc2nc(-c3cccc(NC(=O)c4ccccn4)c3)oc2C)cs1	0.3%
O=c1ccn(C2OC(COP(=O)(O)OP(=O)(O)OP(=O)(O)O)C(O)C2O)c(=O)[nH]1 (stereo not given)	-1.2%
CN(Cc1ccco1)c1cc(-c2cccc(C#N)c2)ncn1	2.0%
Cc1ccc2c(c1)CN(CCNC(=O)c1cccc(Cn3cccn3)c1)CC(C)O2 (stereo not given)	-1.0%
COc1cccc(Cn2c(=O)c(-c3ccc(Cl)cc3)nc3cncnc32)c1	4.6%
COc1ncc2nc(-c3cn(C)c4ccccc34)c(=O)n(C)c2n1	3.7%
COc1ccc(-c2csc(N3CCC(C(N)=O)CC3)n2)cc1	2.0%
COCCN(C)C(=O)c1cnn(-c2nccc(-c3cc(C)sc3C)n2)c1C	-0.3%
O=C(c1ccncc1)N1CCC2(CC1)CN(Cc1cc(C(F)(F)F)cc(C(F)(F)F)c1)C2	-0.8%
SMILES	PINK1 expr mod
CN(CCO)C(=O)c1cn(C2CCCN(Cc3ccc(C(F)(F)F)cc3)C2)nn1 (stereo not given)	0.5%
COc1ccc(CNc2ncncc2-c2cccnc2)c(OC)c1	-0.4%
COc1ncc2nc(C)c(=O)n(CCC#N)c2n1	-0.3%
COCC(=O)N1CCC2(CC1)CN(c1ccc(-c3ccccc3)cc1)C2	-0.9%
Nc1nc2[nH]c(=O)[nH]c2c(=O)[nH]1	-0.6%
CC(=O)NC(c1cc(Cl)c2cccnc2c1O)C1CC1 (stereo not given)	6.2%
FC(F)(F)c1ccccc1-c1cncnc1Nc1ccccc1	0.7%
CC(=O)Nc1ccc(CNc2ncnc3ccc(-c4c(C)noc4C)cc23)cc1	1.1%
COc1cccc(CNC(=O)c2c(OC)cc(=O)n3c2CCN(C(=O)c2ccc(C)nc2)CC3)c1	-0.2%
COC(=O)N1CCC2(CCCN(Cc3nccs3)C2)CC1	1.9%
COc1cc(=O)n2c(c1C(=O)NCc1nccs1)CCN(Cc1ccccc1F)CC2	-1.0%
O=C(NCC1Cc2cccc(-c3ncccn3)c2O1)C1CCCO1 (stereo not given)	-0.1%
COCCNc1ncnc2ccc(-c3ccccc3C(F)(F)F)cc12	0.7%
COC1C(O)C(CO)OC1n1c(Br)nc2c(=O)[nH]c(N)nc21 (stereo not given)	0.5%
O=c1c(CCc2ccccc2)nc2cnc(N3CCOCC3)nc2n1C1CC1	1.3%
O=C(c1cccc(F)c1)N1CCC[C@@]2(CCN(Cc3nccs3)C2)C1	-0.5%
CC(C)CCCC(C)C1CCC2C3CC(=O)[C@H]4CC(O)CC[C@]4(C)C3CC[C@@]12C (stereo not given in full)	0.9%
O=C(NCCN1CCOCC1)c1cnn(-c2ncc3c(n2)-c2ccccc2CC3)c1C1CC1	-1.1%
CCCS(=O)(=O)NCc1c(C)ncc2c1CCN(C(=O)/C=C/c1ccccc1)C2	1.0%

Pulled by structure from above:
SMILES	PINK1 expr mod
COCCNc1ncnc2ccc(-c3ccccc3C(F)(F)F)cc12	0.7%
FC(F)(F)c1ccccc1-c1cncnc1Nc1ccccc1	0.7%

Screening data deposited in PubChem by National Center for Advancing Translational Sciences (NCATS).
